# High-throughput results: PubChem BioAssay, several laboratories
# Insulin prom inh: TRM-6 insulin promoter activity inhibition; inhibition, % at 2 µM; TRM-6 cells (human fetal islet line), insulin promoter-eGFP reporter, imaging; reporter expression induced with tamoxifen; 130,000 tested, 0.9% active;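 active means inhibition above the mean plus 3 SD, with well images judged a real hit on visual review, cut at about 60% in these data, passing the limit was not always enough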
# GALR2 ag: activates the human galanin receptor 2. GALR2-expressing cells, agonist activation read-out. activation, %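 (tested at 5 µM)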. 140,000 tested, 0.48% active;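 active means above mean plus 3 SD of all compounds, about 5% in these data, not always enough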;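 further: 0% = vehicle buffer wells and 100% = reference agonist at full effect; tested in CHO reporter cells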
# RGS16-Gao HTS: modulates binding between human RGS16 and Galphao. O15492+P09471. bead-based flow cytometry RGS16-Galphao binding, fluorescence; actives lie on both sides. binding response (% of control), % at 10 µM. 220,000 tested, 0.38% active. AID 1441;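 active means below 25% or above 175%, edge rows of some plates excepted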;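 further: Galphao activated by GDP with aluminum fluoride before binding; 100% = wells without compound and 0% = beads without RGS; some results beyond the cut were filed as inactive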
# HSV replic up: increases HSV replication in cells; HSV replication augmentation in cells, fold increase; maximum fold increase; 220,000 tested, 0.005% active; AID 1956;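 active means peak rise of 1.5-fold or more in the series; tested in PC3 cells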;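 further: first round at 10 µM; read as green reporter fluorescence; hits show the peak of a series up to 25 µM; 1 = signal of infected wells without compound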
# PKD1 kinase inh: blocks activity of human protein kinase D1 | inhibition, %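 (about 10 µM by stock and volumes)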 | PKD1 kinase fluorescence polarization assay | Q15139 | 200,000 tested, 0.056% active;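 active means inhibition of 50% or more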;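 further: controls were vehicle for no effect and a reference inhibitor for full effect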
# Target sequence (Q15139 whole entry, looked up): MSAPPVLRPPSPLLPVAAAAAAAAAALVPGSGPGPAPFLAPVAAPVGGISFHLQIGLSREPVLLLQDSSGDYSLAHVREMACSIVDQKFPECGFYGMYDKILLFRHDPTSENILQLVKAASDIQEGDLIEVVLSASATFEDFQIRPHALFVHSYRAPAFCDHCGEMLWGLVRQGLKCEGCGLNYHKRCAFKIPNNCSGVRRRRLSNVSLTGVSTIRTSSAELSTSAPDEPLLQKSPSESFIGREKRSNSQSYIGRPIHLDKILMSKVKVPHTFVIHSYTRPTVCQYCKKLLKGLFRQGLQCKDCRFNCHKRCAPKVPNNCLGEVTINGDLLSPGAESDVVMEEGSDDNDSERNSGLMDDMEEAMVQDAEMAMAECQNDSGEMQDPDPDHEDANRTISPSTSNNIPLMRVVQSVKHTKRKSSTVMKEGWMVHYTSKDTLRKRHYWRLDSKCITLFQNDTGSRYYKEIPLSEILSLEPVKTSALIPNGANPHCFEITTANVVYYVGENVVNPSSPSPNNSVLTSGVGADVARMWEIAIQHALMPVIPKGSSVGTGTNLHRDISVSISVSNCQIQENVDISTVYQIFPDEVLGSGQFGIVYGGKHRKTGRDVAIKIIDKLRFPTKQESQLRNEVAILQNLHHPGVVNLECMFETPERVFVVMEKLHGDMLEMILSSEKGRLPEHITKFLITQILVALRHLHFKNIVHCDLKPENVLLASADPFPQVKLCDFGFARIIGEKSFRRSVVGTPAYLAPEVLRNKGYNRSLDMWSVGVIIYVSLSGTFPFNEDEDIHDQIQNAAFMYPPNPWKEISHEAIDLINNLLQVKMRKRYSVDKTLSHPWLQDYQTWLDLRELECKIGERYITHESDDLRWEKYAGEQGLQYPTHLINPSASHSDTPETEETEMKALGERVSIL
# Insulin prom inh cell count: recorded beside Insulin prom inh, whose call it bears; normalized cell count, %; measured here: cell count, toxicity; reference of the scale not given here;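 cells exposed to compound for 48 h; stained nuclei by imaging scaled within each plate; lower means fewer cells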
# HSV replic up primary fold: recorded beside HSV replic up, whose call it bears; fold increase; compound at 10 µM; measured here: primary screen fold increase 10 uM; tested in PC3 cells;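 GFP signal in the first replicate; 1 = infected wells without compound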
# Starred values were filed as active, the others as inactive; i = inactive; x = no result given. Compounds were not picked by outcome (roughly 1.2% active in at least one column).
SMILES,Insulin prom inh,Insulin prom inh cell count,GALR2 ag,RGS16-Gao HTS,HSV replic up,HSV replic up primary fold,PKD1 kinase inh
CC(C)OC(=O)CSc1nc(N)c(C#N)cc1C#N,x,x,x,92,i,0.86,-7
O=C(NCc1ccncc1)C12CC3CC(CC(C3)C1)C2,x,x,-0.2,96,i,1.1,2
Cc1cc(C)n(C(=O)CCNC(=O)c2ccccc2Cl)n1,44,113,-2.7,106,i,0.9,-2
C=CCOC(=O)C1=C(C)NC(=O)NC1C1CC=CCC1 (stereo not drawn),33,170,-1.1,100,i,0.96,-1
CC(=O)c1cn(CC(=O)Nc2ccc(C)cc2C)c2ccccc12,6,127,-3.2,104,i,0.76,-1
COc1ccc(-c2csc(N3CCN(C(=O)c4ccco4)CC3)n2)cc1,x,x,-0.7,107,i,0.99,-12
CCOC(=O)c1sc2nc(C)nc(SCC(=O)N(C)C3CCS(=O)(=O)C3)c2c1C (stereo not drawn),x,x,x,96,i,0.97,6
CN(C(=O)c1ccc(OC2CCN(C(=O)c3cccnc3)CC2)cc1)C1CCCCC1,x,x,x,98,i,0.97,2
Cc1cccc(-c2noc(CN(C(=O)c3ccc(Br)o3)C(C)C)n2)c1,-104,121,-1.8,97,i,1.1,-14
C/C(=N\NC(=O)COc1c(C)cccc1C)c1cccs1,17,121,x,104,i,0.93,4
Cc1cc(C)nc(NCCC(=O)O)n1,-33,88,x,99,i,0.96,-3
COc1ccc2nc(Cl)c(C#N)cc2c1,38,32,x,115,i,0.93,1
CCOC(=O)N1CCN(C(=O)C(C)(C)Oc2ccc(Cl)cc2)CC1,x,x,-3.1,98,i,0.77,-10
COc1ccc(NC(=O)C2CCN(S(=O)(=O)c3ccc(OC)c(OC)c3)CC2)cc1,-7,124,-2.8,100,i,0.88,-5
Cc1ccc2c(c1)N(C(=O)NC1CCCCC1)C(C)(C)CC2C (stereo not drawn),13,108,-1.5,103,i,0.77,-8
COc1cc(/C=N/NC(=O)c2ccoc2C)cc(OC)c1O,5,118,0.6,99,i,0.93,-5
N#Cc1ccc(/C=C/C(=O)c2ccco2)cc1,-3,140,-1.3,104,i,0.75,-2
CC(C)Oc1nc(-c2ccccc2Cl)nc2ccccc12,x,x,x,101,i,1.1,x
NC(=O)c1cc2c3ccccc3ccn2c1-c1ccccc1,x,x,x,97,i,0.99,x
COCCNC(=S)N/N=C(\C)c1ccc(OC(F)F)cc1,x,x,x,102,i,0.84,x
Cc1cc(NCCCN2CCOCC2)n2ncc(-c3ccccc3)c2n1,-13,66,-1.3,105,i,0.94,-25
NC1=NC(=Nc2ccc(Br)cc2)c2ccccc21,25,161,0.5,105,i,0.66,-1
CC(C)(C)C(=O)COC(=O)c1ccc(N)c([N+](=O)[O-])c1,x,x,x,99,i,1,-11
CCCC(=O)Nc1ccc(-c2ccc(NC(=O)CCC)cc2)cc1,-50,94,-1.5,94,i,0.97,7
Cc1cn(C(=O)C(C)N2C(=O)c3ccccc3C2=O)c(C)n1 (stereo not drawn),-22,66,-0.4,104,i,0.8,-1
CN(C)S(=O)(=O)c1ccc2oc(SCC(=O)NCC(F)(F)F)nc2c1,17,88,-0.3,108,i,0.79,5
Cc1c(NS(=O)(=O)c2cccc(C(=O)NCc3ccncc3)c2)c(=O)n(-c2ccccc2)n1C,27,67,-1.2,94,i,0.91,-10
CC(C)c1nc(Cl)c(C#N)c2c1COC(C)(C)C2,x,x,x,103,i,1,x
Cc1cc([N+](=O)[O-])ccc1NC(=O)C(C)N1CCN(c2ccccn2)CC1 (stereo not drawn),x,x,x,96,i,1,-1
Cc1csc2ncc(C(=O)NCc3ccco3)c(=O)n12,-6,93,-2.1,149,i,0.73,-8
COc1ccccc1OCC(=O)n1cc(C(=O)c2cc(Cl)cc(Cl)c2O)cn1,13,117,-0.7,101,i,1,-3
CCOc1ccccc1CNn1nnnc1N,44,74,-5.0,68,i,0.98,3
O=C(N/N=C1/C(=O)c2cccc3cccc1c23)c1ccc(Cl)cc1,57,107,-2.0,100,i,1.1,-4
Cc1scc(C(=O)NNC(=S)NC(C)c2ccccc2)c1C (stereo not drawn),-417,39,-1.1,55,i,1,-18
N/C(=N\OC(=O)c1ccc(Cl)cc1)c1nonc1N,25,130,0.1,102,i,0.9,-2
O=C(CCN1CCc2ccccc2C1)Nc1ccccc1F,-21,69,-2.1,94,i,1,-10
CCC(C)(C)C(=O)Nc1cc([N+](=O)[O-])ccc1F,-13,111,0.3,108,i,0.9,2
CN1CCN(C(=S)c2ccc(-c3cc(Cl)ccc3Cl)o2)CC1,x,x,x,107,i,0.99,x
CCSc1nc2ccccc2n1CCC(=O)O,0,78,0.0,103,i,1.1,-2
CO/N=C/Cc1c([N+](=O)[O-])c(C)nn1C,x,x,x,104,i,0.86,2
Cc1ccc(-c2cc(-c3ccccc3)c(C#N)c(Br)n2)cc1,x,x,-0.2,106,i,0.81,-72
CC(C)C(OC(=O)C1=Cc2ccccc2OC1)C(=O)NC1CCCC1 (stereo not drawn),-43,82,-1.5,47,i,0.99,0
O=C(Nc1ccccc1)N1CCCN(Cc2ccccc2F)C1,0,140,-0.2,100,i,1.1,4
COc1ccccc1/C=N/NC(=O)CCSc1ccccc1,14,109,0.4,103,i,0.99,-1
Cc1ccc(CNC(=O)COC(=O)c2cncc(Br)c2)cc1,0,109,x,99,i,0.88,-2
COc1ccc(C(=O)NCC(=O)OCC(=O)N2CCC(C)CC2)cc1OC,x,x,x,100,i,0.93,-6
C/C=C(/C)C(=O)Nc1cccc(C2=NOC3(C2)C[C@@H](C(N)=O)N(C(=O)CCCCC)C3)c1 (stereo partly drawn),x,x,x,99,i,0.87,x
COc1ccc(C(=O)C2CN(c3ccccc3)CC2c2ccc(Cl)cc2)cc1 (stereo not drawn),7,83,0.7,100,i,0.9,7
COc1ccc(-c2noc(CCCC(=O)Nc3ccc(C(N)=O)cc3)n2)cc1OC,x,x,x,95,i,0.97,x
COc1ccccc1N(CC(=O)NC1CCCC1)C(=O)CCC(=O)Nc1cc(C)on1,-33,33,-0.6,101,i,1,-4
CCOC(=O)C(NC(=O)c1ccc(OC)cc1)(OCC1(CC)COC1)C(F)(F)F (stereo not drawn),7,120,-2.5,98,i,1,-21
COc1ccc(NC(=O)c2cc(-c3cc(C)ccc3O)n[nH]2)cc1Cl,x,x,0.6,107,i,0.59,4
Cn1c(=O)n(Cc2ccc(F)cc2)c(=O)c2c1nc1n2CCCN1Cc1ccccc1,-5,75,-1.9,103,i,1,3
CC(=O)NC1C(OCc2ccccc2)OC(CO)C(OC(C)=O)C1OC(C)=O (stereo not drawn),x,x,-0.2,106,i,1,0
COc1cc(C(=S)N2CCOCC2)ccc1O,x,x,x,89,i,1,-3
O=C(CCN1C(=O)C2CC=C(Cl)CC2C1=O)NCc1ccccc1 (stereo not drawn),-22,117,-2.1,111,i,0.95,-6
Cc1c(C(=O)O)oc2c(F)cccc12,x,x,x,103,i,1,-7
COc1ccc(CN2C=C3C(=O)C(C)(OC(=O)C4CCCC4)C(=O)C=C3C=C2c2ccsc2)cc1 (stereo not drawn),x,x,x,97,i,1.1,x
CCCS(=O)(=O)N1CCN(Cc2ccc(OCc3ccccc3)c(OC)c2)CC1,50,90,-1.0,x,i,0.85,-6
CCCc1n[nH]c2c1/C(=N\O)CCC2,11,136,-3.5,99,i,0.95,0

# Three entries already listed, sorted by the value under HSV replic up primary fold, low to high:
structure	HSV replic up primary fold
O=C(CCN1C(=O)C2CC=C(Cl)CC2C1=O)NCc1ccccc1 (stereo not drawn)	0.95
Cc1c(C(=O)O)oc2c(F)cccc12	1
COc1ccc(CN2C=C3C(=O)C(C)(OC(=O)C4CCCC4)C(=O)C=C3C=C2c2ccsc2)cc1 (stereo not drawn)	1.1

# Reprinted from the results shown, four compounds:
SMILES,Insulin prom inh,Insulin prom inh cell count,GALR2 ag,RGS16-Gao HTS,HSV replic up,HSV replic up primary fold,PKD1 kinase inh
CC(C)OC(=O)CSc1nc(N)c(C#N)cc1C#N,x,x,x,92,i,0.86,-7
O=C(NCc1ccncc1)C12CC3CC(CC(C3)C1)C2,x,x,-0.2,96,i,1.1,2
Cc1cc(C)n(C(=O)CCNC(=O)c2ccccc2Cl)n1,44,113,-2.7,106,i,0.9,-2
C=CCOC(=O)C1=C(C)NC(=O)NC1C1CC=CCC1 (stereo not drawn),33,170,-1.1,100,i,0.96,-1

# Continued:
SMILES,Insulin prom inh,Insulin prom inh cell count,GALR2 ag,RGS16-Gao HTS,HSV replic up,HSV replic up primary fold,PKD1 kinase inh
S=c1nc(-c2ccc(Cl)cc2)[nH][nH]1,x,x,x,96,i,0.99,x
O=C(Nc1ccc(COc2ccccc2)cc1)Oc1ccccc1N1CCOCC1,x,x,x,107,i,0.93,x
CCn1c(SCc2ccc(C(=O)Nc3nccs3)cc2)nnc1-c1ccc(N)cc1,-34,129,-0.9,101,i,0.91,-9
CCCCC(=O)Nc1cc(C)c(NC(=O)c2cccs2)cn1,42,104,x,96,i,1,-3
Cc1ccc(NC(=O)CN(C)C(=O)CSc2nc(C)cs2)cc1,-6,100,x,99,i,0.94,-9
CCOC(=O)N1CCN(C(=O)c2cccc(NC(=O)c3ccco3)c2)CC1,4,127,-1.2,101,i,1,-2
CCN(C(=O)COC(=O)/C=C/c1cnc2ccccc2n1)C1CCS(=O)(=O)C1 (stereo not drawn),0,113,x,106,i,1,-1
CCOC(=O)c1c(C)[nH]c(C)c1C(=O)CSc1nc2ccccc2c(=O)n1-c1ccccc1C,-20,62,2.7,82,i,0.95,-4
O=C(Nc1nn(Cc2ccccc2F)cc1Br)c1cccs1,20,111,-0.5,98,i,0.91,-9
CN(C)S(=O)(=O)c1ccc(NC(=O)COC(=O)C2COc3ccccc3O2)cc1 (stereo not drawn),5,108,x,101,i,0.85,9
O=C(COc1ccc(Cl)cc1Cl)NC(=O)N1CCCCC1,48,71,-2.4,100,i,0.89,-11
O=C(CSc1ccccn1)NCc1ccc2c(c1)OCO2,x,x,x,105,i,1.1,-4
O=C(c1cnn2c1NC(c1ccc(Br)cc1)CC2C(F)(F)F)N1CCN2CCCC2C1 (stereo not drawn),-10,118,0.3,103,i,0.64,3
Cc1ccc(NC(=O)CCC(=O)NNC(=O)c2cccc([N+](=O)[O-])c2)cc1C,21,88,-0.5,101,i,0.95,-5
COc1ccc(NC(=O)CN(C)S(=O)(=O)c2cccs2)cc1,x,x,-2.2,99,i,1,-4
CCOc1ccc(-c2cc(C(=O)Nc3ccc4c(c3)OCCO4)c3ccccc3n2)cc1,x,x,-1.7,102,i,1,5
COc1ccc(NC(=O)c2ccccn2)cc1OC,4,102,-0.4,91,i,0.98,-14
COCCn1nnnc1CN1CCC(Cc2ccccc2)CC1,12,146,0.4,101,i,1.1,-6
O=C(NNC(=O)c1ccc(-c2ccccc2)cc1)c1ccccc1,-28,130,0.8,109,i,0.96,8
CCOC(=S)SCc1cn2ccc(C)cc2n1,-8,84,-0.9,118,x,x,7
CCCNC(=O)c1cc2c(C(F)(F)F)nn(C)c2s1,12,59,-0.8,91,i,0.95,-14
CCOC(=O)N1CCC(Nc2c(N3CCN(c4cc(Cl)ccc4C)CC3)c(=O)c2=O)CC1,x,x,-1.3,99,i,1.1,-3
CCN(CC)S(=O)(=O)c1cccc(C(=O)Oc2cccnc2)c1,61,50,0.8,64,i,1.1,-8
CC(C)CC(=O)NC(=S)Nc1ccc(N2CCOCC2)c(Cl)c1,x,x,x,92,i,0.97,7
CCOCCCNC(=O)C(NC(=O)Cc1cccs1)c1ccc(Cl)cc1 (stereo not drawn),x,x,x,103,i,1,-1
CCc1cccc(NC2c3ccccc3C(=O)N2c2cccnc2)c1 (stereo not drawn),50,105,-1.9,30,i,1,2
COC(=O)c1ccc2c(=O)n(Cc3ccco3)c(SCC(=O)Nc3cc(C)on3)nc2c1,-24,109,x,100,i,0.76,-4
CCCCN(CCCNC(=O)Cn1ncc2ccsc2c1=O)Cc1ccccc1,-14,108,x,98,i,0.93,-5
O=C(CNCC1CCCO1)N1CCCCCC1 (stereo not drawn),x,x,x,108,i,0.95,-11
COCCCNc1nc2nonc2nc1N1CCN(Cc2cccc(C)c2)CC1,x,x,x,97,i,1.3,-6
CN(Cc1c(F)cccc1Cl)C(=O)c1cc2ccccc2o1,-33,102,x,98,i,0.95,-10
CCOC(=O)c1ccc(NC(=O)N2CCOCC2)cc1,-31,114,x,100,i,0.85,-1
